Assay outcomes deposited in PubChem BioAssay by several laboratories.
RN4220 kill: S. aureus RN4220 growth inhibition | OD600, 16 h | 330,000 compounds, 0.33% hits | inhibition, % (test concentration not listed);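 active = z-score of -3 or lower and OD600 up to 0.18 on both plates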;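 also: plate controls were untreated cells for no effect and reference antibiotic for full effect; stock transfer was 100 nL into about 80 µL; one replicate is shown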
Sa ugtP lethal: compounds lethal to S. aureus RN4220 ugtP deletion mutant. OD600 growth, 16 h; some inactives read as strong as hits. growth inhibition, % (test concentration not listed). 330,000 compounds, 0.54% hits;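 active = z-score under -3 and OD600 up to 0.15 on both plates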;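 also: plate controls were untreated wells for no effect and antibiotic for full effect; wells of about 80 µL received 100 nL stock; the first replicate is given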
Autofluor counter: compound fluorescence in toxin protease inhibitor counterscreen. compound autofluorescence counterscreen, microsphere flow cytometry; active compounds read high. fluorescence intensity (test concentration not listed). 360,000 compounds, 3.1% hits. AID 624483;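 active = at least 3 SD above the mean of all compounds, about 16000 in these data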;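 also: 100 nL of 1 mM stock went into each well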
PrP UTR inh: inhibition of PrP 5' UTR reporter expression; 340,000 compounds, 0.35% hits; cell-based PrP 5' UTR mRNA reporter, plate reader; AID 488862; inhibition, % (no concentration beside the values);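 active = every replicate at 50% or more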;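 also: 0 = median of the neutral control wells; tested in H4 reporter cells; numbers are from one replicate; inactives centre near -14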
Mtb hypoxia inh: Mtb hypoxia fluorescent reporter inhibition | M. tuberculosis hypoxia-regulated fluorescent reporter, fluorescence | fluorescence inhibition, % (no concentration beside the values) | 300,000 compounds, 0.1% hits | AID 1159583;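 active = 35 to 45% if threefold the growth effect, above 45% if 1.5-fold the growth effect; inactive = the rest, general growth blockers included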;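 also: wells of about 50 µL received 100 nL stock; 0% = vehicle wells and 100% = reference inhibitor wells; whole bacteria with a GFP reporter of the hypoxia response; strong numbers were not always called active; many hits fall short of the cut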
BJeLR viability: kills HRASV12-expressing BJeLR cells; BJeLR (HRASV12) viability, CellTiter-Glo ATP luminescence, 48 h; reference of the scale not given here; inhibition, % (no concentration beside the values); 300,000 compounds, 0.17% hits; AID 1554;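 active = replicate mean above 50%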;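 also: 50 nL library stock added to about 25 µL; numbers are from one replicate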
Mtb hypoxia inh growth: also measured in Mtb hypoxia inh; calls as there; growth inhibition, %; measured here: M. tuberculosis growth (absorbance);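 0% = vehicle and 100% = reference antibiotic; read after six days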
* = called active by the depositor.

For CCCCCN(C(=O)CCCSc1nncs1)c1c(N)n(CCCC)c(=O)[nH]c1=O the results were RN4220 kill 0.0, Sa ugtP lethal 12.6, Autofluor counter 4884, PrP UTR inh -18.9, Mtb hypoxia inh 1.1, BJeLR viability 0.6 and Mtb hypoxia inh growth 8.1.
O=C(NN1CCOCC1)c1cccc(F)c1 was read as RN4220 kill 0.4, Sa ugtP lethal 2.5, Autofluor counter 6087, PrP UTR inh -67.7, Mtb hypoxia inh 6.3, BJeLR viability 1.1 and Mtb hypoxia inh growth 7.8.
For O=C(CCSc1nnc(-c2ccncc2)o1)Nc1ccccc1 the results were RN4220 kill 2.1, Sa ugtP lethal 3.7, Autofluor counter 10381, PrP UTR inh -14.5, Mtb hypoxia inh 7.1, BJeLR viability -5.5 and Mtb hypoxia inh growth 1.3.
COC(=O)c1ccc(-c2c(-c3ccccc3)ncc3cc(F)ccc23)cc1 was read as RN4220 kill 1.5, Sa ugtP lethal -13.6, Autofluor counter 3671, PrP UTR inh -27.4, Mtb hypoxia inh 15.7 and Mtb hypoxia inh growth 14.3.
Cc1ccc(-c2onc(C)c2C)cc1S(=O)(=O)N1CC(C)Oc2ccccc21 (stereo not drawn) was read as RN4220 kill 3.3, Sa ugtP lethal -15.6, Autofluor counter 5601, PrP UTR inh -3.8, Mtb hypoxia inh -5.6, BJeLR viability -3.7 and Mtb hypoxia inh growth -1.8.
Screening Cc1ccc(NC(=O)O/N=C/c2ccc(N(C)C)cc2)cc1 returned Autofluor counter 3114, PrP UTR inh -11.4 and BJeLR viability 4.3.
Screening CCN1C(=O)C(=CN2CC(C)CC(C)C2)SC1=S (stereo not drawn) returned RN4220 kill 7.2, Sa ugtP lethal -1.7, Mtb hypoxia inh 8.3 and Mtb hypoxia inh growth 0.2.
`Cc1csc2c(N3CCN(S(=O)(=O)c4ccc(Cl)cc4)CC3)ncnc12` gave RN4220 kill -5.9, Sa ugtP lethal -0.6, Autofluor counter 5605, PrP UTR inh -4.8, Mtb hypoxia inh -2.5, BJeLR viability -2.3 and Mtb hypoxia inh growth -4.5.
Screening CCOc1cc(C=NNc2nc(N3CCCCC3)nc(N3CCCCC3)n2)ccc1OC(=O)c1ccco1 returned RN4220 kill 4.4, Sa ugtP lethal 7.3, Mtb hypoxia inh 9.4 and Mtb hypoxia inh growth -5.1.
For CCN(CC)CCOC(=O)c1cccc(Cl)c1 the results were RN4220 kill 8.1, Sa ugtP lethal 4.7, Autofluor counter 2493, PrP UTR inh -9.9, Mtb hypoxia inh 4.2, BJeLR viability -4.7 and Mtb hypoxia inh growth -5.7.
`CCCn1c(SCC(=O)N2CCN(C(=O)c3ccco3)CC2)nc2ccccc2c1=O` gave RN4220 kill 0.4, Sa ugtP lethal 1.7, Autofluor counter 3753, PrP UTR inh -24.6, Mtb hypoxia inh -6.0, BJeLR viability 6.1 and Mtb hypoxia inh growth 2.6.
`O=C(COC(=O)c1ccc(Br)c(S(=O)(=O)N2CCOCC2)c1)NCC1CCCO1` (stereo not drawn) gave RN4220 kill -13.8, Sa ugtP lethal -1.3, Autofluor counter 2967, PrP UTR inh -11.6, Mtb hypoxia inh 4.2, BJeLR viability 21.8 and Mtb hypoxia inh growth 4.3.
COC(=O)/C(=C\c1cc(OC)c(OC)c(OC)c1)c1nc2ccccc2[nH]1 was read as RN4220 kill 1.3, Sa ugtP lethal 4.9, Autofluor counter 4388, PrP UTR inh -3.1, Mtb hypoxia inh 15.5, BJeLR viability 4.7 and Mtb hypoxia inh growth 7.9.
Screening COc1ccc(N2CCN(S(=O)(=O)c3cc4c(cc3C)NC(=O)CO4)CC2)cc1 returned RN4220 kill -2.7, Sa ugtP lethal -1.6, Autofluor counter 5690, PrP UTR inh -5.7, Mtb hypoxia inh 6.5, BJeLR viability 12.0 and Mtb hypoxia inh growth 8.5.
For Brc1c(CSc2nncn2-c2ccccc2)nc2ncccn12 the results were RN4220 kill 5.6, Sa ugtP lethal 17.7, Autofluor counter 3344, PrP UTR inh -4.1, Mtb hypoxia inh 8.9, BJeLR viability -6.2 and Mtb hypoxia inh growth 4.2.
`Cc1cc(NC(=O)CCN2C(=O)/C(=C\c3ccccc3)SC2=S)no1` gave RN4220 kill 4.5, Sa ugtP lethal 0.5, Autofluor counter 3467, PrP UTR inh -15.5, Mtb hypoxia inh 4.4, BJeLR viability -9.6 and Mtb hypoxia inh growth -6.4.
Screening Cc1ccc(S(=O)(=O)N2CCCC2C(=O)NCCc2ccccc2)cc1 (stereo not drawn) returned RN4220 kill 7.2, Sa ugtP lethal 1.7, Autofluor counter 4775, PrP UTR inh -0.8, Mtb hypoxia inh 0.6, BJeLR viability 2.3 and Mtb hypoxia inh growth 11.3.
Screening Nn1c(COc2cccc(Br)c2)nnc1SCC(=O)NCC1CCCO1 (stereo not drawn) returned RN4220 kill 0.7, Sa ugtP lethal 0.9, PrP UTR inh -37.9, Mtb hypoxia inh 9.0 and Mtb hypoxia inh growth -0.3.
Screening Cc1ccccc1C(=O)NCc1nnc(SCC(=O)N2CCN(c3ccccc3)CC2)n1C returned RN4220 kill 3.0, Sa ugtP lethal -0.7, Autofluor counter 4563, PrP UTR inh -8.6 and BJeLR viability -7.5.
`O=C(NNc1nc2ccccc2s1)Nc1ccc(F)cc1` gave Autofluor counter 3287, PrP UTR inh -28.7 and BJeLR viability 1.4.
Screening CC(NC(=O)c1ccc(CS(C)(=O)=O)cc1)c1cccc2ccccc12 (stereo not drawn) returned RN4220 kill -1.0, Sa ugtP lethal 0.0, Autofluor counter 3550, PrP UTR inh -19.0, Mtb hypoxia inh 14.4, BJeLR viability 0.0 and Mtb hypoxia inh growth 9.1.
For NC(=O)C1CCN(C2=C(Cl)C(=O)c3ccccc3C2=O)CC1 the results were RN4220 kill 20.6, Sa ugtP lethal 20.7, Autofluor counter 9545, PrP UTR inh -24.2, Mtb hypoxia inh 8.9, BJeLR viability -3.7 and Mtb hypoxia inh growth 19.0.
COc1ccc(-c2cc(=O)oc3cc(OC(=O)C4CCCCC4)ccc23)cc1 was read as RN4220 kill -2.0, Sa ugtP lethal 15.4, Autofluor counter 2662, PrP UTR inh -12.8, Mtb hypoxia inh 4.6, BJeLR viability 9.7 and Mtb hypoxia inh growth -0.9.
Screening COc1ccc(-c2cn(CCc3c[nH]c4ccccc34)nn2)cc1 returned RN4220 kill 6.2, Sa ugtP lethal 10.3, Autofluor counter 3657, PrP UTR inh -14.5, Mtb hypoxia inh 9.5, BJeLR viability -3.5 and Mtb hypoxia inh growth 3.5.
`CCc1cc(/C(Cc2cscn2)=N\O)c(O)cc1O` gave Autofluor counter 4356, PrP UTR inh -17.7 and BJeLR viability -1.1.
For Nc1c(C(=O)Nc2ccc3c(c2)OCCO3)nnn1Cc1ccccc1 the results were RN4220 kill 3.6, Sa ugtP lethal -3.8, Autofluor counter 6613, PrP UTR inh -100.9, Mtb hypoxia inh 6.3, BJeLR viability 16.1 and Mtb hypoxia inh growth 13.8.
`COc1ccc(C(C)=NNC(=O)c2nnn(-c3nonc3N)c2-c2cccs2)cc1` gave RN4220 kill 2.8, Sa ugtP lethal 1.2, Mtb hypoxia inh -1.0 and Mtb hypoxia inh growth -11.1.
For COc1ccc(-c2nsc(SCC(=O)Nc3cc(C)on3)n2)cc1 the results were RN4220 kill 0.7, Sa ugtP lethal -3.8, Autofluor counter 3688, PrP UTR inh -28.2, Mtb hypoxia inh -0.8, BJeLR viability 4.8 and Mtb hypoxia inh growth -9.4.
For CCOc1ccccc1-c1noc(CCC(=O)NC2CCCCC2)n1 the results were RN4220 kill 1.8, Sa ugtP lethal 2.8, Autofluor counter 6906, PrP UTR inh -6.4, Mtb hypoxia inh 4.6, BJeLR viability -1.4 and Mtb hypoxia inh growth 5.1.
Screening COc1ccc2ccccc2c1CN1CCCC(CO)C1 (stereo not drawn) returned RN4220 kill 3.3, Sa ugtP lethal -1.9, Autofluor counter 22577*, PrP UTR inh -33.1, Mtb hypoxia inh 4.6, BJeLR viability -4.0 and Mtb hypoxia inh growth 3.2.
COc1ccc(S(=O)(=O)N2CCN(C)CC2)c(C)c1 was read as RN4220 kill 6.0, Sa ugtP lethal 6.2, Autofluor counter 3036, PrP UTR inh -13.8, Mtb hypoxia inh -7.3, BJeLR viability 3.1 and Mtb hypoxia inh growth -0.5.
Screening C[C@H](CO)NC(=O)[C@H](C)[C@@H]1C[C@@]1(C)[C@@H](NC(=O)OCc1ccccc1)c1ccccc1 returned Autofluor counter 4230, PrP UTR inh -18.4 and BJeLR viability 6.7.
Screening Nc1nc(CN2CCN(C(c3ccccc3)c3ccccc3)CC2)nc(Nc2ccccc2)n1 returned RN4220 kill 3.9, Sa ugtP lethal -9.2, Autofluor counter 5280, PrP UTR inh -15.1, Mtb hypoxia inh -9.1, BJeLR viability -6.8 and Mtb hypoxia inh growth 14.0.
For CN(CC(=O)NCc1ccncc1)S(=O)(=O)c1ccccc1 the results were RN4220 kill 6.4, Sa ugtP lethal 4.4, Autofluor counter 9253, PrP UTR inh -17.1, Mtb hypoxia inh 7.3, BJeLR viability -6.9 and Mtb hypoxia inh growth 3.2.
Screening COCCNC(=O)c1cccc(Nc2nc(-c3ccccc3)c3cc(Cl)ccc3n2)c1 returned RN4220 kill 23.8, Sa ugtP lethal 21.3, Autofluor counter 2035, PrP UTR inh -13.4, Mtb hypoxia inh 11.9, BJeLR viability -3.9 and Mtb hypoxia inh growth 11.5.
For CCN(CC)S(=O)(=O)c1ccc(N/N=C(\C)c2ccc3c(c2)OCO3)c([N+](=O)[O-])c1 the results were Autofluor counter 8252, PrP UTR inh -34.5 and BJeLR viability -15.3.
`CCN(c1cccc(C)c1)S(=O)(=O)c1ccc(-c2coc(C)n2)cc1` gave RN4220 kill 7.8, Sa ugtP lethal 0.6, Autofluor counter 4531, PrP UTR inh -15.0, Mtb hypoxia inh 4.8, BJeLR viability 14.0 and Mtb hypoxia inh growth -1.8.
For Fc1c(F)c(C(F)(F)F)c(F)c(F)c1N/N=C\c1cccs1 the results were Autofluor counter 8374, PrP UTR inh -18.4 and BJeLR viability 0.1.
COc1ccccc1N1CC(C(=O)Nc2nnc(SCc3ccccn3)s2)CC1=O (stereo not drawn) was read as RN4220 kill -1.5, Sa ugtP lethal 1.4, Autofluor counter 10694, PrP UTR inh -13.7, Mtb hypoxia inh -2.9, BJeLR viability -7.6 and Mtb hypoxia inh growth 3.3.
`CC(=O)NCCCc1nc2ccccc2n1Cc1c(F)cccc1Cl` gave RN4220 kill 1.2, Sa ugtP lethal 5.9, Autofluor counter 4382, PrP UTR inh -5.2, Mtb hypoxia inh -5.8, BJeLR viability -1.3 and Mtb hypoxia inh growth -6.0.

Grouped by structure, those above containing a furan ring, fused or not
Screening CCOc1cc(C=NNc2nc(N3CCCCC3)nc(N3CCCCC3)n2)ccc1OC(=O)c1ccco1 returned RN4220 kill 4.4, Sa ugtP lethal 7.3, Mtb hypoxia inh 9.4 and Mtb hypoxia inh growth -5.1.
`CCCn1c(SCC(=O)N2CCN(C(=O)c3ccco3)CC2)nc2ccccc2c1=O` gave RN4220 kill 0.4, Sa ugtP lethal 1.7, Autofluor counter 3753, PrP UTR inh -24.6, Mtb hypoxia inh -6.0, BJeLR viability 6.1 and Mtb hypoxia inh growth 2.6.

(next part)
For COc1ccc(C(=O)C2CCCN(S(=O)(=O)c3ccccc3F)C2)c(C)c1 (stereo not drawn) the results were RN4220 kill 2.0, Sa ugtP lethal 2.5, Autofluor counter 6535, PrP UTR inh -4.7, Mtb hypoxia inh 5.3, BJeLR viability -1.8 and Mtb hypoxia inh growth 15.7.
Nc1c(Br)cc([N+](=O)[O-])cc1[N+](=O)[O-] was read as RN4220 kill 8.9, Sa ugtP lethal 4.6, Autofluor counter 5963, PrP UTR inh -15.9, Mtb hypoxia inh -8.8 and Mtb hypoxia inh growth 3.3.
`Cc1ccc(C(=O)Oc2ccc(/C=C3\C(=N)N4N=C(N5CCOCC5)SC4=NC3=O)cc2)cc1` gave RN4220 kill 17.1, Sa ugtP lethal 5.5, Autofluor counter 5558, PrP UTR inh -16.7, Mtb hypoxia inh -3.7, BJeLR viability -0.1 and Mtb hypoxia inh growth 8.0.
For O=C(CCc1nnc(CCCCc2ccccc2)o1)NCc1cccc(F)c1 the results were RN4220 kill 1.7, Sa ugtP lethal 5.3, Autofluor counter 2436, PrP UTR inh -20.5, Mtb hypoxia inh -3.7, BJeLR viability 2.9 and Mtb hypoxia inh growth 6.5.
Screening O=P(CN1CCN(c2ccccc2)CC1)(N1CCCCC1)N1CCCCC1 returned RN4220 kill -4.0, Sa ugtP lethal 0.3, Autofluor counter 7723, PrP UTR inh -5.9, Mtb hypoxia inh 7.4, BJeLR viability -7.3 and Mtb hypoxia inh growth -4.9.
